# HIV Env fusion: inhibitors of HIV-1 Env-driven cell-cell fusion, primary screen, HeLa-JRFL effector, CEM21 target cells, luciferase. 360,000 tested, 1.1% active. inhibition, % at 12.3 µM;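 active = mean replicate inhibition score of at least 50 and every replicate individually at or above 50; inconclusive = only one of the two criteria met; inactive = mean below 50 and not all replicates reaching 50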;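 note: 0% = plate neutral controls and 100% = maraviroc near 300 nM; one replicate is shown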
# Yeast UUG start: modulators of yeast start codon fidelity, primary screen, whole organism, S. cerevisiae, single point, plate reader. S. cerevisiae UUG-firefly luciferase reporter, luminescence/redox ratio. activity score, % at 18.7 µM. 350,000 tested, 0.13% active. AID 602363, 2012;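 active = replicate mean at a twofold rise or more, about +100% in these data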;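 note: firefly luciferase made from a UUG start codon reports start codon fidelity; reporter light over untreated wells divided by growth signal over untreated wells; some hits fall short of that in this replicate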
# An asterisk follows results filed as active; ? = inconclusive; [ ] = dose if it differs, or a comment. An excerpt; rates above refer to the full screens.
# Order of values: HIV Env fusion, Yeast UUG start
C[C@@H](NC(=O)C[C@@H]1C=C[C@@H](NC(=O)C2CCOCC2)[C@@H](CO)O1)c1ccccc1
    7.1[16.7 µM], -11.1
COc1ccc(NC(=O)Nc2ccc3c(c2)C(=O)N([C@@H](C)CO)C[C@@H](C)[C@H](CN(C)S(=O)(=O)c2ccc(C)cc2)OCCCC[C@H](C)O3)cc1
    29.0[16.7 µM], 12.7
C[C@@H]1CCCCO[C@@H](CN(C)C(=O)Nc2ccc(F)cc2)[C@H](C)CN([C@H](C)CO)C(=O)c2cc(NC(=O)Nc3cccc4ccccc34)ccc2O1
    -17.8[16.7 µM], -12.4
CO[C@@H]1CN(C)C(=O)c2ccc(NC(=O)NC(C)C)cc2OC[C@H](C)N(CC2CC2)C[C@H]1C
    -5.3[16.7 µM], -4.7
COc1ccc(S(=O)(=O)Nc2ccc3c(c2)CC(=O)N([C@H](C)CO)C[C@@H](C)[C@H](CN(C)S(=O)(=O)c2cn(C)cn2)O3)cc1
    7.9[16.7 µM], 0.9
N[C@H]1CC[C@H](CCn2cc(-c3cccc(F)c3)nn2)O[C@@H]1CO
    -0.5[16.7 µM], -11.7
CO[C@H]1CN(C)C(=O)c2cc(NC(C)=O)ccc2OC[C@@H](C)N(Cc2cncnc2)C[C@H]1C
    9.7[16.7 µM], -8.7
COCc1cn(CC[C@@H]2CC[C@H](NC(=O)Nc3ccc4c(c3)OCO4)[C@@H](CO)O2)nn1
    -19.1[16.7 µM], 28.6
CCCN(C)C[C@H]1Oc2cc(C#Cc3ccncc3)ccc2S(=O)(=O)N([C@H](C)CO)C[C@H]1C
    -13.4[16.7 µM], -9.4
CO[C@H]1CN(C)C(=O)c2cc(NC(=O)NC3CCCCC3)ccc2OC[C@H](C)N(C)C[C@H]1C
    1.7[16.7 µM], 3.2
Cc1ccc(S(=O)(=O)Nc2cccc3c2O[C@@H](CN(C)C)[C@@H](C)CN([C@@H](C)CO)C3=O)cc1
    -15.3[16.7 µM], 2.1
C[C@@H]1CN([C@@H](C)CO)C(=O)Cc2cc(NC(=O)CCCCCC(=O)Nc3ccccc3N)ccc2O[C@H]1CN(C)Cc1ccncc1
    -10.1[16.7 µM], -8.7
CC(C)NC(=O)[C@@]1(Cc2ccccc2I)c2ccccc2C(=O)N(Cc2ccccc2C(F)(F)F)[C@H]1c1ccc(CO)cc1
    0.5[16.7 µM], -14.8
O=C(N[C@@H]1CC[C@@H](CCNS(=O)(=O)c2ccc(F)cc2)O[C@H]1CO)c1cnccn1
    -24.9[16.7 µM], -0.2
C[C@H](CO)N1C[C@H](C)[C@@H](CN(C)Cc2ccccc2F)Oc2ncc(/C=C/c3ccccc3)cc2C1=O
    -13.0[16.7 µM], -10.1
C[C@H](CO)N1C[C@H](C)[C@H](CN(C)C(=O)NC2CCCC2)Oc2ncc(-c3cccc(C(F)(F)F)c3)cc2C1=O
    6.9[16.7 µM], 10.3
N#C[C@@H]1[C@@H](c2ccc(C3=CCCCC3)cc2)[C@H](CO)N1C(=O)CN1CCOCC1
    3.4[16.7 µM], 11.9
CC(=O)N(C)C[C@H]1Oc2cc(C#Cc3ccccc3F)ccc2S(=O)(=O)N([C@@H](C)CO)C[C@@H]1C
    10.4[16.7 µM], 0.0
CO[C@H]1CN(C)C(=O)c2ccc(NC(=O)Nc3ccccc3F)cc2OC[C@H](C)NC[C@@H]1C
    9.8[16.7 µM], 5.4
C[C@H]1CN([C@@H](C)CO)C(=O)c2cc(NC(=O)Nc3ccc(C(F)(F)F)cc3)ccc2O[C@@H]1CN(C)Cc1ccc(C(F)(F)F)cc1
    30.2[16.7 µM], 1.7
O=C(C[C@H]1C[C@H]2c3cc(NC(=O)C4CCC4)ccc3O[C@H]2[C@@H](CO)O1)NCc1cccnc1
    5.1[16.7 µM], -21.5
CS(=O)(=O)Nc1ccc2c(c1)[C@H]1C[C@H](CC(=O)NCC(F)(F)F)O[C@H](CO)[C@H]1O2
    3.9[16.7 µM], 7.6
C[C@@H]1CN([C@@H](C)CO)C(=O)Cc2cc(NC(=O)Nc3cccc4ccccc34)ccc2O[C@H]1CN(C)Cc1ccc(C(F)(F)F)cc1
    29.4[16.7 µM], -0.7
C[C@@H]1CN([C@H](C)CO)C(=O)c2cc(NS(=O)(=O)c3ccccc3)ccc2O[C@@H](C)CCCCO[C@@H]1CN(C)S(=O)(=O)c1ccccc1
    -35.3[16.7 µM], 11.1
C[C@H](CO)N1C[C@H](C)[C@H](CN(C)C(=O)c2ccncc2)OCCCC[C@H](C)Oc2ccc(NC(=O)Cc3ccccc3)cc2C1=O
    9.1[16.7 µM], -5.7
C[C@@H]1CN([C@H](C)CO)C(=O)c2cccc(NC(=O)c3cnccn3)c2O[C@@H]1CN(C)CC1CC1
    22.8[16.7 µM], -7.2
COc1ccc(NC(=O)N(C)C[C@H]2Oc3c(NS(C)(=O)=O)cccc3C(=O)N([C@@H](C)CO)C[C@@H]2C)cc1
    4.7[16.7 µM], -8.8
CCCNC(=O)C[C@@H]1C[C@H]2c3cc(NC(=O)Nc4ccccc4)ccc3O[C@H]2[C@@H](CO)O1
    19.7[16.7 µM], 11.6
Cc1ccc(-c2ccc3c(c2)O[C@@H](CN(C)C(=O)Nc2ccc(C(F)(F)F)cc2)[C@H](C)CN([C@@H](C)CO)S3(=O)=O)cc1
    14.9[16.7 µM], -17.7
C[C@H]1CN([C@@H](C)CO)C(=O)c2cc(-c3ccncc3)cnc2O[C@@H]1CN(C)C(=O)Cc1cccnc1
    -10.0[16.7 µM], -14.0

# (further entries)
# Order of values: HIV Env fusion, Yeast UUG start
COc1ccc(CN(C)C[C@H]2OCCCC[C@@H](C)Oc3ccc(NC(=O)Nc4ccc(C(F)(F)F)cc4)cc3C(=O)N([C@@H](C)CO)C[C@@H]2C)cc1
    43.2[16.7 µM], 13.7
COc1ccc(S(=O)(=O)N[C@@H]2CC[C@H](CC(=O)NCc3ccccc3F)O[C@H]2CO)cc1
    1.7[16.7 µM], -5.5
CO[C@H]1CN(C)C(=O)c2cc(NC(=O)NC(C)C)ccc2OC[C@H](C)N(C(=O)CN(C)C)C[C@H]1C
    -0.1[16.7 µM], -13.1
C[C@@H]1CN([C@@H](C)CO)C(=O)Cc2cc(NC(=O)Nc3ccccc3)ccc2O[C@H]1CN(C)Cc1ccc(C(F)(F)F)cc1
    26.2[16.7 µM], 3.7
C/C=C/c1ccc2c(c1)O[C@H](CN(C)C(=O)Cc1ccccn1)[C@@H](C)CN([C@H](C)CO)S2(=O)=O
    0.7[16.7 µM], 5.0
Cc1ccc(S(=O)(=O)N(C)C[C@@H]2OCCCC[C@@H](C)Oc3ccc(NC(=O)c4ccccc4)cc3C(=O)N([C@@H](C)CO)C[C@H]2C)cc1
    -8.5[16.7 µM], -4.4
Cc1ccc(S(=O)(=O)Nc2ccc3c(c2)C(=O)N([C@H](C)CO)C[C@H](C)[C@H](CN(C)Cc2ccccc2)OCCCC[C@@H](C)O3)cc1
    -7.3[16.7 µM], 0.2
Cc1ccc(S(=O)(=O)N[C@@H]2C=C[C@H](CC(=O)NCc3ccc(Cl)c(Cl)c3)O[C@H]2CO)cc1
    15.7[16.7 µM], -24.9
CNC[C@H]1OCCCC[C@H](C)Oc2ccc(NS(=O)(=O)c3ccc(OC)cc3)cc2C(=O)N([C@@H](C)CO)C[C@@H]1C
    6.2[16.7 µM], 18.0
C[C@@H]1CN([C@H](C)CO)S(=O)(=O)c2ccc(C#CC3CC3)cc2O[C@H]1CN(C)C(=O)c1ccccc1
    23.2[16.7 µM], 5.8
CCNC(=O)C[C@H]1C=C[C@H](NC(=O)C2CCC2)[C@H](CO)O1
    -8.6[16.7 µM], 0.4
C[C@@H]1CN([C@@H](C)CO)C(=O)c2cc(C3=CCCCC3)cnc2O[C@H]1CN(C)Cc1ccccc1C(=O)O
    -6.9[16.7 µM], 16.0
COCC(=O)N1C[C@H](C)[C@@H](OC)CN(C)C(=O)c2cc(NC(=O)NC(C)C)ccc2OC[C@H]1C
    -11.2[16.7 µM], 0.0
CN(C)c1ccc2c(c1)[C@@H]1C[C@@H](CC(=O)NCc3ccccc3)O[C@H](CO)[C@@H]1O2
    13.8[16.7 µM], -13.9
CC(C)NC(=O)Nc1ccc2c(c1)C(=O)N([C@@H](C)CO)C[C@@H](C)[C@H](CN(C)S(=O)(=O)c1ccccc1)OCCCC[C@@H](C)O2
    -24.5[16.7 µM], 13.3
C[C@H](O)C#Cc1cnc2c(c1)C(=O)N([C@H](C)CO)C[C@H](C)[C@@H](CN(C)Cc1cccc(C(=O)O)c1)O2
    -13.1[16.7 µM], 4.9
COc1ccc(S(=O)(=O)N[C@H]2CC[C@H](CCn3cc(-c4cccc(F)c4)nn3)O[C@@H]2CO)cc1
    5.5[16.7 µM], -3.0
Cn1cnc(S(=O)(=O)N2C[C@H](O)COC[C@@H]3O[C@H](CC(=O)NC4Cc5ccccc5C4)CC[C@H]32)c1
    -4.4[16.7 µM], 2.1
C[C@@H]1CCCCO[C@@H](CN(C)C(=O)Nc2ccccc2)[C@@H](C)CN([C@H](C)CO)C(=O)c2cc(NC(=O)Nc3ccc4c(c3)OCO4)ccc2O1
    -7.8[16.7 µM], 1.4
Cc1ccccc1S(=O)(=O)NCC[C@H]1CC[C@H](NC(=O)C2CCCC2)[C@H](CO)O1
    8.2[16.7 µM], 27.5
C[C@H]1CN([C@@H](C)CO)C(=O)c2cc(C3=CCCC3)cnc2O[C@H]1CN(C)S(=O)(=O)c1cn(C)cn1
    7.4[16.7 µM], 1.2
C[C@H]1CCCCO[C@H](CN(C)S(=O)(=O)c2ccc(Cl)cc2)[C@@H](C)CN([C@@H](C)CO)C(=O)c2cc(NC(=O)CCC(F)(F)F)ccc2O1
    -9.3[16.7 µM], -1.7
CC(=O)N(C)C[C@@H]1Oc2cc(C#C[C@H](C)O)ccc2S(=O)(=O)N([C@H](C)CO)C[C@H]1C
    -8.0[16.7 µM], 1.2
C/C=C/c1ccc([C@@H]2[C@H](C#N)N(C(=O)NC3CCCCC3)[C@H]2CO)cc1
    1.5[16.7 µM], -9.3
C[C@H](CO)N1C[C@H](C)[C@@H](CN(C)C(=O)C2CCC2)Oc2cc(-c3cccnc3)ccc2S1(=O)=O
    4.1[16.7 µM], -18.9
C[C@@H]1CN([C@H](C)CO)C(=O)c2cc(NC(=O)CCCN(C)C)ccc2O[C@@H](C)CCCCO[C@H]1CN(C)S(=O)(=O)c1ccc(F)cc1
    -5.7[16.7 µM], 22.5
COc1ccc(S(=O)(=O)Nc2ccc3c(c2)C(=O)N([C@@H](C)CO)C[C@H](C)[C@@H](CN(C)S(=O)(=O)c2ccc(OC)cc2)OCCCC[C@@H](C)O3)cc1
    -107.4[16.7 µM], -13.6
COc1ccc(S(=O)(=O)N[C@H]2CC[C@H](CCn3cc(-c4ccccc4F)nn3)O[C@@H]2CO)cc1
    ?, 6.4
COc1ccc(NC(=O)Nc2ccc3c(c2)C(=O)N([C@H](C)CO)C[C@H](C)[C@@H](CN(C)S(=O)(=O)c2ccc(OC)cc2)OCCCC[C@H](C)O3)cc1
    -66.8[16.7 µM], -12.6
CCCC#Cc1cnc2c(c1)C(=O)N([C@@H](C)CO)C[C@H](C)[C@@H](CN(C)C(=O)c1ccc3c(c1)OCO3)O2
    5.9[16.7 µM], 0.4

# As entered above:
# Entry of COc1ccc(S(=O)(=O)N[C@@H]2CC[C@H](CC(=O)NCc3ccccc3F)O[C@H]2CO)cc1 in HIV Env fusion: 1.7[16.7 µM]
# Entry of CCCC#Cc1cnc2c(c1)C(=O)N([C@@H](C)CO)C[C@H](C)[C@@H](CN(C)C(=O)c1ccc3c(c1)OCO3)O2 in HIV Env fusion: 5.9[16.7 µM]
# Entry of C[C@@H]1CN([C@@H](C)CO)C(=O)c2cc(C3=CCCCC3)cnc2O[C@H]1CN(C)Cc1ccccc1C(=O)O in Yeast UUG start: 16.0

# The listing continues.
# Order of values: HIV Env fusion, Yeast UUG start
COc1ccc(S(=O)(=O)N(C)C[C@@H]2Oc3cc(C#CC4CCCCC4)ccc3S(=O)(=O)N([C@H](C)CO)C[C@H]2C)cc1
    17.5[16.7 µM], -19.7
C[C@@H]1CN([C@H](C)CO)C(=O)c2cc(NS(C)(=O)=O)ccc2O[C@H]1CN(C)CC1CC1
    -3.4[16.7 µM], 5.5
C[C@H]1CN([C@@H](C)CO)C(=O)c2cccc(NS(C)(=O)=O)c2O[C@H]1CN(C)Cc1ccncc1
    1.2[16.7 µM], -15.4
COc1ccc(S(=O)(=O)N(C)C[C@@H]2OCCCC[C@@H](C)Oc3ccc(NC(=O)c4ccccc4)cc3C(=O)N([C@@H](C)CO)C[C@H]2C)cc1
    -9.7[16.7 µM], -7.3
O=C(NCC[C@H]1CC[C@H](NC(=O)C2CCCCC2)[C@@H](CO)O1)Nc1ccc(Cl)cc1
    -35.9[16.7 µM], 7.6
C[C@H]1CN([C@@H](C)CO)C(=O)c2cc(NC(=O)Cc3ccccc3)ccc2O[C@H]1CN(C)Cc1ccncc1
    -14.3[16.7 µM], 6.2
Cc1ccccc1S(=O)(=O)N1[C@H](C#N)[C@H](c2ccc(-c3ccc(F)cc3)cc2)[C@H]1CO
    -39.7[16.7 µM], 0.5
C[C@H](CO)N1C[C@H](C)[C@@H](CN(C)Cc2ccc3c(c2)OCO3)Oc2ncc(/C=C/c3ccccc3)cc2C1=O
    26.0[16.7 µM], 7.6
C[C@H](CO)N1C[C@H](C)[C@@H](CN(C)C(=O)C2CC2)Oc2cc(-c3cccc(F)c3)ccc2S1(=O)=O
    26.6[16.7 µM], -0.4
CCO[C@H]1OC(C(=O)N2CCCCCCC2)=C[C@@H](C2CC2)[C@@H]1CCCO
    9.0[16.7 µM], 0.0
COCC(=O)N(C)C[C@@H]1Oc2ncc(C#Cc3ccccc3OC)cc2C(=O)N([C@@H](C)CO)C[C@@H]1C
    9.8[16.7 µM], 3.0

# Bioassay records: PubChem, Broad Institute
